NS1 function inh: influenza NS1 inhibition. AID 2326. 270,000 compounds, 0.4% hits. S. cerevisiae slowed by influenza A NS1, growth recovery by OD600. Potency, µM (doses to about 46.1 µM), inactives show at the top dose activity, positive = more growth; active means well fitted rising curve with a large enough effect; inconclusive means small, poorly fitted or top-dose-only effect; inactive means no such curve, though single readings can be large or run the other way; also: nearly all actives have a fitted effect of over 50% in size
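In this qHTS, NS1 from influenza A is expressed in budding yeast, where it slows growth. Cells are switched from glucose to 2% galactose medium (pH 6.0, -URA), treated with compound, and growth recovery is read at OD600.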
StopGo reporter: FMDV 2A StopGo reporter, luciferase signal | human cells with a luciferase reporter of 2A StopGo recoding; control for the full effect not named in the record | Potency, µM (titrated, usually from 57.9 µM), for inactives: at the top dose signal change, negative = less light | 410,000 compounds, 1.2% hits; active = well fitted falling curve with a large enough effect; inconclusive = small, poorly fitted or top-dose-only effect; inactive = no such curve, though single readings can be large or run the other way; tested in HEK293T cells; also: % is scaled to controls: 0 for no effect and ±100 for the full control effect; nearly all actives have a fitted effect of over 45% in size; luciferase light after 4 h
Cruzain noTriton: cruzain (T. cruzi) inhibition without detergent; purified cruzain, Z-FR-AMC fluorescence, no detergent; P25779; 200,000 compounds, 2.3% hits; Potency, µM, without a hit: max response, negative = inhibition, most hits filed as inhibitors;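 also: plate controls were enzyme without inhibitor for no effect and buffer without enzyme for full effect; nearly all actives have a fitted effect of over 40% in size; top concentration of the series not given in the record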
Target sequence (P25779 123-467 limits assumed): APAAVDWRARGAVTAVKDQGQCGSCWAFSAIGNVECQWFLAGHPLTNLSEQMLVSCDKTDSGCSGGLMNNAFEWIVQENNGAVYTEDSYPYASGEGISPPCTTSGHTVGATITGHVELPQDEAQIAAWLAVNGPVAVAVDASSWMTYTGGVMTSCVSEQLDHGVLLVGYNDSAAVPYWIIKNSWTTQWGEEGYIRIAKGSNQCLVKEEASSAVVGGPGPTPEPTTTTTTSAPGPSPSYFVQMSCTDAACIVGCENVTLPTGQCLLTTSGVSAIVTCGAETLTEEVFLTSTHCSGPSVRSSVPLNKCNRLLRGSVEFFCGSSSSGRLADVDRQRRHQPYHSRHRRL
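Detergent-free condition (0.00005% Triton X-100) in acetate buffer pH 5.5 with DTT. 1.5 nM enzyme and compound were pre-mixed 15 min, then 2 uM Z-FR-AMC substrate added; reaction progress from fluorescence change between first and third reads (60 s).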
LASV entry inh: Lassa virus entry inhibition; AID 540256; Lassa virus pseudotype entry inhibition, cell reporter; control for the full effect not named in the record; Potency, µM (top dose mostly 37.9 µM), without a hit: at the top dose activity change, negative = inhibition, hits mostly inhibitors; 300,000 compounds, 1.2% hits; active means well fitted inhibition curve with a large enough effect; inconclusive means small, poorly fitted or top-dose-only effect, or effect the other way; inactive means flat fitted curve, though single readings scatter; tested in HEK293 cells; also: % is scaled to controls: 0 for no effect and ±100 for the full control effect; nearly all actives have a fitted effect of over 50% in size; luciferase read-out
Cruzain inh Det: inhibitors of Trypanosoma cruzi cruzain with detergent. purified cruzain, Z-FR-AMC fluorescence, 0.01% Triton. 200,000 compounds, 0.43% hits. Potency, µM, inactives show max response, negative = inhibition, hits mostly inhibitors. P25779;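 also: plate controls were neutral wells for no effect and buffer without enzyme for full effect; nearly all actives have a fitted effect of over 40% in size; top concentration of the series not given in the record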
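Cruzain (1.5 nM) preincubated 15 min at RT with compound in 100 mM sodium acetate pH 5.5, 5 mM DTT, 0.01% Triton X-100. Reaction started with 2 uM Z-FR-AMC; AMC fluorescence (ex 360/em 450 nm) change over 60 s gave rate.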
RE007 growth inh: less growth of the S. pombe RE007 Vpr strain; 360,000 compounds, 0.21% hits; S. pombe RE007 Vpr strain, BacTiter-Glo ATP luminescence, 24 h; control for the full effect not named in the record; Potency, µM (top dose mostly 92.2 µM), without a hit: top-dose activity change, negative = less growth; active = well fitted falling curve with a large enough effect; inconclusive = small, poorly fitted or top-dose-only effect; inactive = no such curve, though single readings can be large or run the other way;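 also: % is scaled to controls: 0 for no effect and ±100 for the full control effect; nearly all actives have a fitted effect of over 50% in size; the assay follows cell death caused by Vpr and the record does not say whether a fall means rescue or toxicity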
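Fission yeast RE007 carrying one integrated HIV-1 vpr copy, seeded at OD 0.01 in PMG+AL medium with 23 nL pinned compound. Grown 24 h at 30 degrees; viability read by BacTiter-Glo luminescence after 5 min.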
SARS PLpro yeast: SARS-CoV PLP inhibition in yeast | S. cerevisiae expressing SARS-CoV PLpro, growth rescue; control for the full effect not named in the record | Potency, µM (highest dose often 32.9 µM), for inactives: top-dose activity, positive = growth rescue | 330,000 compounds, 0.19% hits | AID 485353; active means well fitted rising curve with a large enough effect; inconclusive means small, poorly fitted or top-dose-only effect; inactive means no such curve, though single readings can be large or run the other way; also: 0% is about no effect; nearly all actives have a fitted effect of over 55% in size; growth read by luminescence after 48 h
Marburg entry inh: blocks Marburg virus binding to or entry into cells; AID 540276; Potency, µM (top dose mostly 37.8 µM), for inactives: at the top dose activity change, negative = inhibition, most hits filed as inhibitors; 300,000 compounds, 1.8% hits; Marburg virus pseudotyped entry inhibition, cell reporter; control for the full effect not named in the record; about a third of the inactives were read at about 46 µM; active = well fitted inhibition curve with a large enough effect; inconclusive = small, poorly fitted or top-dose-only effect, or effect the other way; inactive = flat fitted curve, though single readings scatter; tested in HEK293 cells; about a fifth of its hits are not listed in these tables; also: % is scaled to controls: 0 for no effect and ±100 for the full control effect; luciferase read-out
The depositor's hits bear a star; u = inconclusive; x = not tested or not shown; & = joins results of further samples; [ ] = remark or other dose. Unless noted, calls follow the shape of the dose curve; as a rule, active = well fitted curve in the direction sought with a large enough effect; inconclusive = small, poorly fitted or top-dose-only effect, or another doubt; inactive = no such curve, though single readings can be large; an effect the other way counts as inactive or inconclusive. Potency is read from the fitted curve at half-maximal effect.

No.	SMILES	RE007 growth inh	Cruzain inh Det	StopGo reporter	Cruzain noTriton	LASV entry inh	Marburg entry inh	NS1 function inh	SARS PLpro yeast
1	N#Cc1nc(-c2ccco2)oc1N1CCc2ccccc2C1	19%	-21%	17%	2%	u	u	-50%	-7%
2	O=C(NCc1cccs1)C1CCN(C(=O)N2CCOc3ccccc32)CC1	x	0.6%	-9%	-3%	6%[46.1 µM]	x	x	x
3	CCCCC[C@H](O)/C=C/[C@H]1C=CC(=O)[C@@H]1C/C=C\CCCC(=O)O	x	-18%&4.3%	7%[6.7 µM]	u	u	-3%	u	23%
4	COc1ccc(CCN2C(=O)CSC2c2ccc(OC)c(OC)c2)cc1OC (centres undefined)	18%	x	-30%	x	x	x	-1%	1%
5	O=C(c1ccc(C(F)(F)F)cc1)N1CCC(c2noc(-c3ccc(S(=O)(=O)N4CCCC4)cc3)n2)CC1	x	-0.1%	u	-15%	u	1%[46.1 µM]	x	x
6	CC(=O)c1ccc(N(C(=O)CS(=O)CC(=O)Nc2ccc(F)cc2)C(C(=O)NC2CCCCC2)c2cccs2)cc1 (centres undefined)	26%	-0.5%	13%	17%	-5%	-1%	8%	-8%
7	Nc1nc(SCC(=O)OCc2ccccc2)[nH]c(=O)c1NC(=O)c1ccco1	-8%	-0.4%	u	-10%	x	x	-27%	u
8	CCOC(=O)C1CCCN(C(=O)Cc2ccc(OC)c(OC)c2)C1 (centres undefined)	2%	2.9%	-3%	-1%	-2%	2%	2%	-1%
9	O=C(c1ccc2c(Cl)c3c(nc2c1)CCCC3)N1CCC(N2CCCCC2)CC1	-10%	-0.5%	0%	-12%	u	4.6µM*	-3%	-15%
10	COc1ccccc1N1CCN(C(=O)c2cc(C(=O)N3CCN(c4ccccc4OC)CC3)cc([N+](=O)[O-])c2)CC1	1%	x	-7%	x	x	x	6%	9%
11	O=C(O)CCSc1ccc([N+](=O)[O-])cc1[N+](=O)[O-]	13%	x	-21%	x	13%[46.1 µM]	5%[46.1 µM]	-4%	-4%
12	FC(F)(F)c1ccc(-n2cn[nH]c2=S)cc1	15%	x	-9%	x	6%	-1%[46.1 µM]	5%	3%
13	Cc1cccc(-c2cc(=O)c(C(=O)O)cn2-c2ccc(F)cc2F)c1	7%	x	0%	x	x	x	5%	1%
14	O=Cc1cn(Cc2ccc(F)cc2Cl)c2ccccc12	7%	-7.5%	u	0%	u	u	24%	3%
15	CC1CC(=O)C2=C(C1)Nc1ccccc1SC2c1ccc(F)cc1 (centres undefined)	9%	-12%	-17%	13%	-16%	-17%	-1%	-17%
16	Cc1ccc2c(c1)N(CC(=O)NCc1cccs1)C(=O)C(C)O2 (centres undefined)	12%	4.9%	3%	2%	2%	3%	-1%	1%
17	CC(=O)Nc1nc2c(C)c(Cl)ccc2s1	-8%	x	-10%	x	x	x	-4%	-1%
18	O=C(O)CN1C(=O)/C(=C\c2cccc(OCc3ccc(Cl)cc3Cl)c2)SC1=S	6%	x	3%	x	-12%[46.1 µM]	25%[46.1 µM]	u	-7%
19	COc1ccccc1NC(=O)CCN1CCC(C(N)=O)CC1	x	-1.7%	-11%	14%	6%[46.1 µM]	x	x	x
20	CC1CC(C)CN(C(=O)Cn2c(=O)oc3cc(S(=O)(=O)N4CCCC4)ccc32)C1 (centres undefined)	-6%	x	-25%	x	x	x	-1%	-3%
21	CCn1c(SCC(=O)c2ccc3ccccc3c2)nnc1-c1ccco1	13%[3.69 µM]	-4.7%	17%	-19%	12%	u	-15%	-6%
22	COc1ccc(NC(=O)c2oc3ccccc3c2CSC)cn1	-19%	x	-16%	x	4%	-1%[46.1 µM]	-12%	-4%
23	CCOc1ccc(NC(=O)C2(c3ccc(OC)c(OC)c3)CCCC2)cc1	x	-3.0%	0%	-4%	-4%	u	-9%	-6%
24	COc1cccc(CNC(=O)c2cc3oc4ccccc4c3n2C)c1OC	20%	-12%	-1%	-5%	5.6µM*	u	-12%	-1%
25	CC(C)Oc1ccc(Oc2ccc(C(F)(F)F)cn2)cc1	8%	-8.3%	22%	0%	-12%	23%[46.1 µM]	5%	-3%
26	CCOC(=O)c1c(NC(=O)c2cccs2)sc2c1CC(C)(C)OC2	-5%	-16%	u	18%	-11%	u	-43%	2%
27	Cc1cccc2nc(Cn3c(=O)n(CCCC(=O)NCc4ccco4)c(=O)c4ccccc43)cc(=O)n12	3%	-8.6%	-24%	3%	15%	u	0%	2%
28	O=C(OCn1nnc2ccccc2c1=O)c1cn(-c2ccccc2)nc1-c1cccnc1	-5%	-0.2%	u	-7%	3%	-20%	-5%	3%
29	OC(CNCC1CCCCC1)COc1ccccc1 (centres undefined)	5%	x	-10%	x	9%	-19%[46.1 µM]	-1%	-1%
30	O=C(c1ccc(N2CCOCC2)cc1)N1CCCC(Nc2ccccc2)C1 (centres undefined)	19%	x	-10%	x	x	x	-5%	22%
31	CC1CCC(N2CC(=O)N(C3CCCCC3)C(c3ccc(Cl)cc3)C2=O)CC1 (centres undefined)	x	0.3%	-3%	-8%	7%[46.1 µM]	x	x	x
32	CCN(CC(=O)Nc1ccccc1-c1ccccc1)Cc1nc2ccccc2c(=O)[nH]1	13%	x	-7%	x	u	u	x	-1%
33	Cc1cc(-c2nnc3n2N=C(c2ccccc2Br)CS3)n[nH]1	15%	x	-8%	x	-6%	-28%[46.1 µM]	2%	1%
34	COc1ccc(N2CCN(Cc3cc(=O)oc4cc5c(cc34)CCCC5)CC2)cc1	-8%	0.0%	-9%	13µM*	9%	0%	u	u
35	C=CCNc1nc(NCc2ccco2)nc(OCC)n1	47%	-2.2%	-4%	-2%	7%	-7%	-53%	-5%
36	COc1cccc(CNC(=O)COC(=O)c2c(NC(C)=O)sc(C)c2C)c1	11%	x	6%	x	6%	u	x	-11%
37	CCOC(=O)N1CCN(C(=O)c2cc(S(=O)(=O)N3CCc4ccccc43)ccc2OC)CC1	-2%	x	32%[activator]	x	1.8µM*	-10%	x	4%
38	CC1CCc2sc(C(=O)NN=C3CCC(c4ccccc4)CC3)cc2C1 (centres undefined)	-17%	8.0%	6%	6%	6%	39%	u	1%
39	Cc1cc(S(=O)(=O)N2CCCC2)ccc1OCC(=O)Nc1ccccc1	6%	x	-15%	x	23%[46.1 µM]	-3%[46.1 µM]	5%	-2%
40	O=C(CN1C(=O)COc2ccc(S(=O)(=O)N3CCOCC3)cc21)N1CCN(c2cccc(C(F)(F)F)c2)CC1	x	-3.7%	-29%	u	6%[46.1 µM]	u	x	x
41	Cc1cc(C)c(C#N)c(Nc2ccccc2Cl)n1	7%	3.5%	1%	u	-9%	0%	6%	-5%
42	Cc1c(NC(=O)CSc2nnnn2C)c(=O)n(-c2ccccc2)n1C	1%	5.6%	-2%	-5%	25%	3%	-8%	-1%
43	CC(C)N1C(=O)S/C(=C/c2ccc3c(c2)n(C)c(=O)n3C)C1=O	12%	0.5%	16%	u	0%	u	6%	6%
44	O=C(c1ccccn1)N1CCCC(N2CCN(c3cccc(C(F)(F)F)c3)CC2)C1 (centres undefined)	-11%	x	0%	x	-23%[46.1 µM]	-8%[46.1 µM]	6%	1%
45	N#C/C(=C\c1ccccc1O)C(=O)Nc1cccnc1	2%	x	-18%	x	-3%	u	-2%	0%
46	CC(NC(=O)/C(=C/c1ccc(OC(F)F)cc1)c1ccccc1)c1ccccc1 (centres undefined)	-1%	-4.6%	u	0%	-23%	u	-16%	-57%
47	N#Cc1cc2c([nH]c1=S)CCCC2	86%	u	-9%	-6%	5%	5%	9%	6%
48	C/C(=N\Nc1cccc(C(=O)O)c1)c1ccc2c(c1)Nc1ccccc1S2	-8%	x	u	x	12%	-9%[46.1 µM]	-5%	-1%

Molecules listed so far containing a furan ring, fused or not, in the order listed:
No.	SMILES	RE007 growth inh	Cruzain inh Det	StopGo reporter	Cruzain noTriton	LASV entry inh	Marburg entry inh	NS1 function inh	SARS PLpro yeast
1	N#Cc1nc(-c2ccco2)oc1N1CCc2ccccc2C1	19%	-21%	17%	2%	u	u	-50%	-7%
7	Nc1nc(SCC(=O)OCc2ccccc2)[nH]c(=O)c1NC(=O)c1ccco1	-8%	-0.4%	u	-10%	x	x	-27%	u
21	CCn1c(SCC(=O)c2ccc3ccccc3c2)nnc1-c1ccco1	13%[3.69 µM]	-4.7%	17%	-19%	12%	u	-15%	-6%
22	COc1ccc(NC(=O)c2oc3ccccc3c2CSC)cn1	-19%	x	-16%	x	4%	-1%[46.1 µM]	-12%	-4%
24	COc1cccc(CNC(=O)c2cc3oc4ccccc4c3n2C)c1OC	20%	-12%	-1%	-5%	5.6µM*	u	-12%	-1%
27	Cc1cccc2nc(Cn3c(=O)n(CCCC(=O)NCc4ccco4)c(=O)c4ccccc43)cc(=O)n12	3%	-8.6%	-24%	3%	15%	u	0%	2%
35	C=CCNc1nc(NCc2ccco2)nc(OCC)n1	47%	-2.2%	-4%	-2%	7%	-7%	-53%	-5%

Screens deposited in PubChem by National Center for Advancing Translational Sciences (NCATS).
